Screening data as filed in PubChem.
VDR inhibitor = Inhibitors of the vitamin D receptor (VDR): qHTS | VDR-SRC2-3 peptide fluorescence polarization, 2 h | Potency, µM, inactives show max response, negative = inhibition, hits mostly inhibitors | 0.93% of 400,000 active | AID 504847, 2011; active means well fitted inhibition curve with a large enough effect; inconclusive means small, poorly fitted or top-dose-only effect, or another doubt; inactive means no such curve, though single readings can be large or run the other way; further: series mostly up to about 120 µM
Target sequence (P11473 whole entry, looked up): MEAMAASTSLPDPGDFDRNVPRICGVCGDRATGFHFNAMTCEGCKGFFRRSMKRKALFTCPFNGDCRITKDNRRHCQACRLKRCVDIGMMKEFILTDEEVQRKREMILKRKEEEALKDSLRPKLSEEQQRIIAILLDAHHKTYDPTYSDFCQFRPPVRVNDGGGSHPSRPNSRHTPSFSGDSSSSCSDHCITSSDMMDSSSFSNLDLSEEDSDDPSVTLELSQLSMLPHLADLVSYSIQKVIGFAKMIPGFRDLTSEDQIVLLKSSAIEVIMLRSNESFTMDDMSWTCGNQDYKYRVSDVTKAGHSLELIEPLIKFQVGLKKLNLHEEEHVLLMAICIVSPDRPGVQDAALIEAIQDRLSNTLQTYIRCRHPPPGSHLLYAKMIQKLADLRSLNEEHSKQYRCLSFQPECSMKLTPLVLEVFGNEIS
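Compounds are added to VDR with labelled SRC2-3 coactivator peptide and held 2 h at room temperature. Inhibition of the VDR–peptide interaction is then read as a change in fluorescence polarization.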
An asterisk follows results filed as active; ? = inconclusive; & = joins results of further samples. On the % scale 0 is the no-effect control and ±100 the full control effect; potency means the concentration at half of the fitted maximal effect. Only part of the results is shown; rates above refer to the full screens.

A first look, 3 compounds:
Molecule | VDR inhibitor
Cc1ccc(CN2CC(C(=O)Nc3ncccc3C)CC2=O)cc1 (stereo not drawn) | -19%
CC(C)C[C@H](NC(=O)c1[nH]cnc1C(=O)N[C@@H](C)c1ccccc1)C(=O)OCc1ccccc1 | -19%
C=CCOC(=O)C1=C(C)OC(N)=C(C#N)C1c1ccoc1 (stereo not drawn) | 15%

The list itself, repeating the preview:
Molecule | VDR inhibitor
Cc1ccc(CN2CC(C(=O)Nc3ncccc3C)CC2=O)cc1 (stereo not drawn) | -19%
CC(C)C[C@H](NC(=O)c1[nH]cnc1C(=O)N[C@@H](C)c1ccccc1)C(=O)OCc1ccccc1 | -19%
C=CCOC(=O)C1=C(C)OC(N)=C(C#N)C1c1ccoc1 (stereo not drawn) | 15%
CC(C)[C@H](NC(=O)C1CCCC1)c1nc2ccccc2[nH]1 | 11%
CCN(CC)CCCNc1ncnc2scc(-c3ccc(F)cc3)c12 | 9%
C/C(Cn1nnc2ccccc21)=N\NC(=O)c1ccc(Br)cc1 | -16%
Cc1cccc(N(CC(=O)NCCSc2ccc(Cl)cc2)S(C)(=O)=O)c1C | 2%
COc1ccc(C2c3cc(OC)c(OC)cc3CC(=O)N2c2cccc(C#N)c2)cc1 (stereo not drawn) | 15%
CC1C(=O)N2CCCc3cc(NC(=O)C(=O)NCCc4ccccc4)cc1c32 (stereo not drawn) | -10%
COc1ccc(S(=O)(=O)Nc2cccc(F)c2C)cc1C(=O)N1CCOCC1 | 17%
CCOC(=O)C1C(c2ccccc2Cl)NC(=O)N(C)C1(O)C(F)(F)F (stereo not drawn) | 5%
O=C(NCc1ccc2c(c1)OCO2)C1CCCN1C(=O)Nc1ccc(Cl)cc1 (stereo not drawn) | -17%
O=C(CSc1nc2ccccc2s1)Nc1ccc(Cl)c(C(=O)O)c1 | 2%
CCc1nc(CN2CCN(c3ccc(C(F)(F)F)cn3)CC2)c(C)[nH]1 | -14%
Cn1c(CCN2CCOCC2)nc2cc(NC(=O)COc3ccc([N+](=O)[O-])cc3)ccc21 | -5%

Remaining list, next part.
Molecule | VDR inhibitor
O=C(Nc1ccc(F)cc1Cl)c1ccc2c(=O)n3c(nc2c1)CCC3 | -6%
CCc1ccc(OC(C)C(=O)Nc2c(C(=O)c3ccccc3)oc3ccccc23)cc1 (stereo not drawn) | -2%
CN(CC(=O)Nc1ccccc1Br)C(=O)c1cccc(S(=O)(=O)NCc2ccccc2)c1 | -2%
Cc1cccc(C)c1NC(=O)COC(=O)c1ccc(N2CCCC2)c([N+](=O)[O-])c1 | -10%
O=C(CSCc1ccc(F)cc1)NCc1ccc(F)cc1 | -20%&-1%
COc1ccc(CN=CC2=C(O)CNC2=O)cc1OC | 6%
O=C(COc1ccc(Cl)cc1)N1CCN(c2cccc(C(F)(F)F)c2)CC1 | -26%
CCOC(=O)/C(C#N)=C\c1c(OCC)n(CC)c2ccccc12 | -14%
CC1=C(C(=O)OC(C)C)C(c2ccc(F)cc2)NC(=O)N1 (stereo not drawn) | -5%
CCN1CCN(CCCOc2ccccc2-c2ccccc2)CC1 | 16%
COCc1cc(N2CCOCC2)nc(-c2ccccc2)n1 | 3%
O=C(N/N=C/c1ccco1)c1cc(-c2ccc(Cl)cc2)n[nH]1 | 1%
Cc1ccc(CCNC(=O)C2CCN(C(=O)N(C)C)CC2)cc1 | -1%
CC(=O)N1CCc2cc(C(=O)CN3CCC(C)CC3)ccc21 | -9%
CC(=O)N/C(=C/c1ccc(OS(=O)(=O)c2ccc(C)cc2)cc1)C(=O)Nc1ccc(C(=O)O)cc1 | -7%

Rewritten with each value named: part of the list above
> CCOC(=O)/C(C#N)=C\c1c(OCC)n(CC)c2ccccc12
  VDR inhibitor: -14%

> CC1=C(C(=O)OC(C)C)C(c2ccc(F)cc2)NC(=O)N1 (stereo not drawn)
  VDR inhibitor: -5%

> CCN1CCN(CCCOc2ccccc2-c2ccccc2)CC1
  VDR inhibitor: 16%

> COCc1cc(N2CCOCC2)nc(-c2ccccc2)n1
  VDR inhibitor: 3%

Other compounds follow.
Molecule | VDR inhibitor
CCCC(=O)Nc1ccc(C(=O)NNC(=O)COc2ccc(Br)c(C)c2)cc1 | -10%
Cc1ccccc1Cc1c(C)nc2nc(SCC(=O)NCc3ccco3)nn2c1C | -19%
COc1ccc(-c2nnc(Nc3ccc(CC(N)=O)cc3)c3ccccc23)cc1 | -5%
NNc1nc(-c2ccccc2Cl)nc2ccccc12 | -16%
CCOc1cc(CNC(=O)CCCn2c(=O)c3cccn3c3cccnc32)cc(OCC)c1OCC | -17%&12%
CCCn1c(CNC(=O)Cc2ccccc2)nc2ccccc21 | -20%
Cc1ccc(NC(=O)CN2C(=O)COc3ccc(S(=O)(=O)N4CCCCCC4)cc32)c(C)c1 | -16%
CC1=NN(C(=O)c2ccccc2C)C(O)(c2ccc(Cl)cc2)C1 (stereo not drawn) | -2%
O=C(CSc1ncnc2nc[nH]c12)N1CCN(c2ccc(Cl)cc2)CC1 | -12%
CC(=O)c1ccc(S(=O)(=O)N2CCN(S(=O)(=O)c3ccccc3C(F)(F)F)CC2)cc1 | -9%
COC(=O)COc1ccc(S(=O)(=O)N2CCN(c3ccc(F)cc3)CC2)cc1 | -2%
COc1ccc2[nH]c3c(c2c1)CCN1C(=O)C(CC(=O)NCc2cccc(C(F)(F)F)c2)C[C@H](C(=O)N2CCCCC2)[C@@]31C (stereo partly drawn) | 3%
Cc1ccc(-c2cc(-c3ccc(F)cc3)nc(N)c2C#N)o1 | 1%
O=C(c1cccc(F)c1)N1CCC2(CCCN(Cc3nccs3)C2)CC1 | -10%
Nc1ccc(C(=O)Nc2ccco2)cc1 | 11%

New compounds follow:
Molecule | VDR inhibitor
CC(C1CC1)N(Cc1ccccc1)C(=S)Nc1cccc(C(F)(F)F)c1 (stereo not drawn) | -19%
COc1ccc(Oc2ccccc2/C=N/O)cc1 | -14%
CCN(CC)C(=O)Cn1ncc2c([nH]c3ccccc32)c1=O | -6%
O=C(CNC(=O)c1cccc(F)c1)N/N=C/C=C/c1ccccc1 | 1%
Cc1cccc(OCC(=O)NCCCNC(=O)c2ccc(C)nc2)c1 | -5%
CCOC(=O)N1CCc2c(sc3nc(SC(C)C)n(N)c(=O)c23)C1 | -3%
O=C(NCC1CCCO1)c1ccc(NS(=O)(=O)c2cccc([N+](=O)[O-])c2)cc1 (stereo not drawn) | 4%
O=C(Nc1ccccc1F)c1cc2c(s1)-c1ccccc1S(=O)(=O)C2 | -14%
Cc1ccc(NN2C(=O)C=CC2=O)cc1 | -4%
COCCN1C(=O)C(=O)/C(=C(/O)c2ccc3c(c2)OCCO3)C1c1ccc(C(=O)OC)cc1 (stereo not drawn) | -17%
O=C(NC1CCCC1)C1CCN(C(=O)c2ccc(-c3ccccc3)cc2)CC1 | 6%
CC(C)=CCC/C(C)=C/CC/C(C)=C/CC/C(C)=C/C(=O)O | ?
COC(=O)c1cccc(Nc2cc(C)nc(-c3ccccc3O)n2)c1 | -8%
O=C(NC1CCS(=O)(=O)C1)/C(=C\c1ccco1)NC(=O)c1ccccc1 (stereo not drawn) | 4%
CCn1nnc(NC(=S)NC(=O)c2ccc(-c3cccc(Cl)c3)o2)n1 | -21%

(cont.)
Molecule | VDR inhibitor
CCOC(=O)c1ccc(NC(=O)c2ccc(OC(C)C)c(OC)c2)cc1 | -8%
CC1=C(C(=O)Nc2ccccc2)C(c2ccco2)NC(=O)N1 (stereo not drawn) | -2%
COc1cc(CCC(=O)N2CC(C)OC(C)C2)cc(OC)c1OC (stereo not drawn) | 12%
O=C(C1CCCN(Cc2ccccc2Cl)C1)N1CCCCC1 (stereo not drawn) | 3%
COc1ccc(CCNC(=O)C(=O)NCC2OCCN2S(=O)(=O)c2ccc(C)cc2)cc1OC (stereo not drawn) | -11%
CC(Nc1cccnc1)=C(C#N)C#N | 3%
CCCCCC(=O)N1CCN(S(=O)(=O)c2ccc3c(c2)OCCO3)CC1 | -22%
O=C(Nc1ccc2oc(-c3ccc4ccccc4c3)nc2c1)c1ccc2c(c1)OCCO2 | 3%
COc1ccc(CCNc2nc(SCc3cccc(F)c3)nc3ccccc23)cc1OC | 7%
Cc1ccc(NC(=O)c2nc[nH]c2C(=O)NCc2ccccc2)cc1 | 5%
CC(C)Oc1ccc2c(=O)c(-c3ccccc3)coc2c1 | -1%
COc1ccc(CCNC(=O)/C=C/c2ccco2)cc1OC | -18%
Cc1nnc(SCC(=O)N2c3ccccc3C(C)(c3ccccc3)CC2(C)C)s1 (stereo not drawn) | 3%
Cc1nn(CC#N)c(=O)n1-c1ccccc1F | -1%
COc1ccc(CCNC(=O)C(=O)NCC2OCCN2S(=O)(=O)c2ccc(Cl)cc2)cc1OC (stereo not drawn) | -10%

Continuation:
Molecule | VDR inhibitor
Cc1ccc(OCC(=O)N2CCC3(CC2)CC(=O)c2ccccc2O3)cc1 | 9%
O=c1cc(-c2ccccc2)c2c(O)cc(O)cc2o1 | -13%
Cc1cc(C)c2oc(-c3cc(NC(=O)Cc4ccccc4)ccc3Cl)nc2c1 | 0%
CCOc1ccc(OCC)c(-c2c(=O)n(OCc3ccc(C(C)(C)C)cc3)c3ccccc3[n+]2[O-])c1 | 21%
O=C(c1ccc2c(=O)n(Cc3ccc4c(c3)OCO4)c(=O)[nH]c2c1)N1CCN(c2ccccc2)CC1 | -13%
COc1ccc(-c2c(C)nn3c(-c4ccccc4)cc(-c4ccccc4)nc23)cc1OC | -6%
Cc1ccccc1CC1(CO)CCCN(C(=O)c2cccc(Cl)c2)C1 (stereo not drawn) | 2%
CCOC(=O)C1(CC/C(C)=N\NC(N)=O)CC(C)OC1=O (stereo not drawn) | -12%
CCc1ccc(O)c(N=Cc2cccc(C)c2O)c1 | 0%
Cc1ccccc1-c1nc(SCC(=O)NCC2CCCO2)c2c(=O)n(C)c(=O)n(C)c2n1 (stereo not drawn) | -1%
COc1ccc(C(=O)N2CCC3(CCCN(Cc4cc(C(F)(F)F)cc(C(F)(F)F)c4)C3)CC2)cc1 | -11%
COC(=O)c1ccc(NC(=O)CC(=O)Nc2ccc(C(=O)OC)cc2)cc1 | 16%
COc1ccc(-c2c3c(=O)n(C)c(=O)n(C)c3cn2-c2cccc(OC)c2)cc1 | 10%
CC(C)[C@H](NC(=O)N1CC(=O)Nc2ccccc21)C(=O)N[C@@H](C(=O)O)c1ccccc1 | -3%
CN1c2ccccc2C(C)(C)C12CC(c1ccc(S(=O)(=O)N3CCCCC3)cc1)=NO2 (stereo not drawn) | -3%

Other compounds follow:
Molecule | VDR inhibitor
N#CC1=C(N)OC2=C(CCc3ccccc32)C1c1ccccc1Cl (stereo not drawn) | 1%
COc1ccc(/C=N/NC(=S)SC)cc1OC | 12%
COc1ccc(-c2nc(CS(=O)CC(=O)N3CCN(C)CC3)c(C)o2)cc1OC (stereo not drawn) | 6%
CC(=O)Nc1nnc(COc2ccc(Cl)cc2)s1 | -22%
Cc1ccc(CNC(=O)C2C3C=CC(C3)C2C(=O)O)cc1 (stereo not drawn) | -14%
COc1cccc(C(=O)NCc2cn3ccsc3n2)c1 | -20%
O=C(COC(=O)c1cc(S(=O)(=O)N2CCOCC2)ccc1F)Nc1c(Cl)cccc1C(F)(F)F | -9%
O=C(CN(CCO)c1ccccc1)Nc1ccc(Cl)c(S(=O)(=O)N2CCOCC2)c1 | -11%
Cc1ccc(-c2cc(C(F)(F)F)n3nc(C(=O)Nc4c(C)n(C)n(-c5ccccc5)c4=O)cc3n2)cc1 | -5%
O=C(CCSCCc1ccccn1)Nc1nccs1 | -6%
Cc1cc(C)n2nc(SCC(=O)NC3CCCCC3)nc2n1 | -17%
Cc1nc(CC(=O)Nc2nc(-c3ccccc3)cs2)cs1 | 6%
COc1ccc(S(=O)(=O)NCC2CCCN(Cc3ccc(O)cc3)C2)cc1 (stereo not drawn) | 23%
N#Cc1c(N)[nH]c2ccc(Sc3ccccc3)cc12 | -3%
Fc1ccc(Cn2cnc3ccccc32)cc1 | 1%

3 compounds out of the list above, arranged by their value in VDR inhibitor, largest number first:
SMILES,VDR inhibitor
O=C(NCC1CCCO1)c1ccc(NS(=O)(=O)c2cccc([N+](=O)[O-])c2)cc1 (stereo not drawn),4%
Cc1cc(C)c2oc(-c3cc(NC(=O)Cc4ccccc4)ccc3Cl)nc2c1,0%
COc1ccc(CCNC(=O)C(=O)NCC2OCCN2S(=O)(=O)c2ccc(Cl)cc2)cc1OC (stereo not drawn),-10%

Next structures
Molecule | VDR inhibitor
COC(=O)c1ccc(S(=O)(=O)NCc2ccc(S(N)(=O)=O)cc2)n1C | 7%
CCCc1cc(=O)n2[nH]c(NCc3ccc(OC)c(OC)c3)nc2n1 | -17%
C=CCSc1nc2sc(-c3ccccc3)cc2c(=O)n1N | 9%
CN(C(=O)c1cccc(NC(=O)Cc2ccc(NC(=O)C3CCN(S(=O)(=O)c4cccc([N+](=O)[O-])c4)CC3)cc2)c1)C1CC1 | 1%
O=C(Cc1cccs1)N1CCN=C1SCc1ccccc1Cl | 7%
Cc1ccc(C)c(OCCn2ccnc2)c1 | -4%
Cc1c(NC(=O)Nc2cccc([N+](=O)[O-])c2)c(=O)n(-c2ccccc2)n1C | 16%
CS(=O)(=O)Nc1ccc(C(=O)NCc2ccco2)cc1 | -3%
CC(NC(=O)c1ccc2c(=O)n3c(nc2c1)CCCCC3)c1ccccc1 (stereo not drawn) | -8%
NS(=O)(=O)c1ccc(CNC(=O)CC23CC4CC(CC(C4)C2)C3)cc1 | 15%
Nc1ccc2nc(SCc3ccc([N+](=O)[O-])cc3)sc2c1 | -17%
COc1ccccc1C(=O)NCCC(=O)NCc1ccccn1 | ?
CCSc1nnc(NC(=O)c2nc3nc(C)cc(C)n3n2)s1 | -5%
COc1ccc(-c2noc(Cn3c(=O)c4ccccc4n(CC(=O)Nc4cccc(OC)c4)c3=O)n2)cc1 | 5%
